miR-21 FLuc: miR-21 reporter, rising signal; Potency, µM (titrated, usually from 38.3 µM), inactives show at the highest dose reporter change, positive = more light; HeLa miR-21 FLuc reporter, luciferase, 48 h; 340,000 tested, under 10 active; active = well fitted rising curve with a large enough effect; inconclusive = small, poorly fitted or top-dose-only effect; inactive = no such curve, though single readings can be large or run the other way;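 note: % of control where 0% means no effect; miR-21 action dims this reporter so a rising signal means less miR-21 action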
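Luminescence from a firefly luciferase reporter carrying a miR-21 binding site downstream, stably expressed under a CMV promoter in HeLa cells that make miR-21 endogenously, reports miRNA modulation after 48 h compound exposure up to approximately 40uM final.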
Rango release inh: prevents RanGTP from dissociating the Rango-importin beta complex; actives 0.071% (n = 340,000); O95149+P62826; Potency, µM (doses to about 46.1 µM), without a hit: at the highest dose activity change, negative = inhibition; Biochemical FRET Rango-importin beta, RanGTP-induced dissociation; active means falling FRET ratio curve, often poorly fitted, with flat reads before Ran was added; inconclusive means other falling curves, or compound fluorescence or quenching; inactive means flat or rising ratio curve;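 note: potency is the fitted concentration of half-maximal effect; % of control where 0% means no effect; nearly all actives have a fitted effect of over 45% in size; -100% = wells without RanGTP and RCC1; the record marks most hits as doubtful in a second field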
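Rango/importin beta premix (0.1/0.25 uM final), PBS + 1 mM DTT + 0.02% Tween-20 + 0.1% BSA; cpd 5 min RT; FRET pre-read; + RanGTP-RCC1 (0.6 uM Ran, 2 mM GTP, 0.2 uM RCC1); 45 min RT; FRET post-read, ex 430, em 486/530 nm.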
GLA inh pH 4.5: alpha-galactosidase A (human) inhibition, pH 4.5. purified enzyme, 4-MU-alpha-Gal fluorescence, pH 4.5. activity change, negative = inhibition, % at 105 µM. 230,000 tested, under 10 active; inconclusive = small, poorly fitted or top-dose-only inhibition, or a rising curve; inactive = flat fitted curve, though single readings scatter; no compound was filed as active;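 note: 0% = full activity with enzyme and -100% = basal without enzyme; dose as in the result columns while the protocol names 77 µM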
Target sequence (P06280 whole entry, looked up): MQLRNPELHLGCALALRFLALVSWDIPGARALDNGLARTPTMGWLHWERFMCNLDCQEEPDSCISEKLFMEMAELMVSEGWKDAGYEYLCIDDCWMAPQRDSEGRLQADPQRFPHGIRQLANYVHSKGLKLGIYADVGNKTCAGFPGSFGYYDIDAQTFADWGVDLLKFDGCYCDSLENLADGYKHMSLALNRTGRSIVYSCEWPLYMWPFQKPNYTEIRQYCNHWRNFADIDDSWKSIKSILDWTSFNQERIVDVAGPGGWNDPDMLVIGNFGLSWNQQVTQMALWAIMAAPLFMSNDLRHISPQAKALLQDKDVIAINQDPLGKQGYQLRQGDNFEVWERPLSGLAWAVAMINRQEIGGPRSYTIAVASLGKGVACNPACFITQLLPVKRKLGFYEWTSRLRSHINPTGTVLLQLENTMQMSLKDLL
Rango-impB inh: prevents formation of the Rango-importin beta complex | Q14974 | Rango CFP/YFP FRET sensor + importin beta, 45 min | Potency, µM (highest dose often 92.2 µM), for inactives: at the top dose inhibition of complex formation | actives 0.031% (n = 340,000); active = rising FRET ratio curve, often small or poorly fitted; inconclusive = mostly compound fluorescence or quenching in the first reads; inactive = flat curves in all reads;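 note: potency is the fitted concentration of half-maximal effect; 0% = DMSO wells and 100% = buffer wells lacking importin beta; nearly all actives have a fitted effect of over 15% in size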
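FRET biosensor Rango (snurportin 1 IBB between N-terminal EYFP and C-terminal Cerulean), 50 nM in PBS/1 mM DTT/0.02% Tween-20/0.1% BSA, preincubated 5 min RT with compound; 0.125 microM importin beta added, 45 min RT, CFP/YFP FRET ratio read.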
An asterisk follows results filed as active; ? = inconclusive; · = not tested or not shown; & = joins results of further samples; [ ] = remark or other dose. Only part of the results is shown (hit frequency here may not be typical).

Every second line gives: Rango release inh | miR-21 FLuc | GLA inh pH 4.5 | Rango-impB inh
COc1ccccc1OCc1ccc(C(=O)c2ccccc2)cc1
  -17% | -29% | · | -5.2%
COc1ccc(C(=O)NCC(=O)OCC(=O)c2ccc3c(c2)NC(=O)CO3)cc1OC
  -12% | -2% | -8 | 0.3%
O=C(NCc1cccnc1)c1sc2ccccc2c1Cl
  41% | -25% | 2 | ?
C=CCSc1nc(C)c(CC(=C)C)c(=O)[nH]1
  0% | 4% | 5 | 0.6%
CCC(C(=O)Nc1cccc(S(=O)(=O)N(C)c2ccccc2)c1)c1ccccc1 (stereo not drawn)
  -8% | · | · | -1.2%
O=C(N/N=C/c1ccc(F)c(F)c1)c1cccc(S(=O)(=O)N2CCCCC2)c1
  -3% | · | · | 1.0%
NC(=O)c1ccc(S(=O)(=O)N2CCSCC2)cc1
  -22% | -1% | · | 1.3%
Cn1c(SCc2ccc(F)cc2)nnc1-c1ccccn1
  7% | -49% | 8 | 0.6%
Cc1nc(C)c(-c2ccc(SCC(=O)Nc3ccccc3)nn2)s1
  -8% | 12% | · | 0.1%
O=S(=O)(c1ccc(Cl)cc1)N1CCC(N2CCCCCC2)CC1
  -12% | -2% | 0 | 2.3%
CCOC(=O)Cn1cc(/C=N/NC(=O)c2ccc(C#N)cc2F)c2ccccc21
  0% | -3% | 9 | 3.7%
Cc1ccc(NC(=O)CCCn2c(=O)oc3ccccc32)c(O)c1
  1% | -28% | · | 0.6%
O=[N+]([O-])c1cccc(Nc2c([N+](=O)[O-])ccc3nonc23)c1
  9% | 0% | · | 0.2%
C/C(CC(=O)Nc1cccnc1)=N\NC(=O)C(=O)Nc1cccc(C)c1
  -9% | -28% | 1 | -5.0%
Cc1sc(NC(=O)C2CCCCC2C(=O)O)c(C(N)=O)c1-c1ccc(C(C)(C)C)cc1 (stereo not drawn)
  2% | -8% | 1 | -0.7%
C=CCN(CC=C)S(=O)(=O)c1ccc(C(=O)Nc2nnc(COC)o2)cc1
  -13% | 17% | 4 | -3.0%
Cc1c(NC(=S)N/N=C/c2cc([N+](=O)[O-])ccc2O)c(=O)n(-c2ccccc2)n1C
  -5% | 7% | -13 | -0.1%
C=CCOc1ccc(C2NC(=O)c3ccccc3O2)cc1OCC (stereo not drawn)
  2% | 0% | · | 0.3%
CCN1CCN(C(CNS(=O)(=O)c2ccccc2)c2cccnc2)CC1 (stereo not drawn)
  2% | -4% | · | -5.5%
C=CCNc1nnnc2c1sc1nc(N3CCOCC3)c3c(c12)CCCC3
  0% | -2% | 2 | 0.0%
C/C(=N/Nc1ccc(F)cc1)c1ccc(Cl)s1
  15% | -17% | 8 | -0.9%
O=C(CCSc1ccc(Cl)cc1)N1CCN(c2ccc(O)cc2)CC1
  8% | -10% | -4 | -4.3%
Cc1cccc(N(CC(=O)N2CCCC2)S(=O)(=O)c2ccccc2)c1
  0% | 0% | 2 | -4.1%
C#CCOC(=O)c1ccc(-n2cncn2)nc1
  4% | 4% | 7 | -2.4%
O=C(COc1ccc(S(=O)(=O)NC2CCCCC2)cc1)NCCC1=CCCCC1
  -4% | -2% | 6 | 0.2%
O=[N+]([O-])c1ccccc1S(=O)(=O)n1nnc2ccccc21
  -6% | -5% | 3 | 2.5%
CC12CCC(=O)N1C(C(=O)Nc1cccc(S(=O)(=O)N3CCCCCC3)c1)CS2 (stereo not drawn)
  6% | · | · | 4.9%
O=C(NCc1ccccc1)c1ccc(CS(=O)(=O)c2ccc(Br)cc2)o1
  7% | 0% | · | 6.5%
COc1ccc(N(CC(=O)N2CCN(c3ccccc3)CC2)S(=O)(=O)c2ccc(C)cc2)cc1
  2% | 1% | · | 1.3%
COCCN(C(=O)COC(=O)c1cccs1)c1c(N)n(Cc2ccccc2)c(=O)[nH]c1=O
  0% | -5% | · | -0.3%

An excerpt from above, reduced to GLA inh pH 4.5.
SMILES | GLA inh pH 4.5
O=C(NCc1cccnc1)c1sc2ccccc2c1Cl | 2
C=CCSc1nc(C)c(CC(=C)C)c(=O)[nH]1 | 5

Further records.
Every second line gives: Rango release inh | miR-21 FLuc | GLA inh pH 4.5 | Rango-impB inh
Clc1ccc(/C=N/Nc2ncnc3nc[nH]c23)cc1
  -2% | -101% | -2 | 2.3%
COC(C(=O)Nc1ccnn1C1CCN(Cc2ccc(CO)o2)CC1)c1ccccc1 (stereo not drawn)
  10% | -4% | · | -0.1%
Clc1ccc(CNc2ccc(CNc3ncn[nH]3)cc2)cc1
  21% | -18% | -4 | -1.7%
COc1ccc(NC(=O)N(C)C[C@H]2Oc3ccc(NS(=O)(=O)c4c(C)noc4C)cc3C(=O)N([C@H](C)CO)C[C@@H]2C)cc1
  29% | · | · | 4.4%
O=C(O)c1nc(N2CCCCC2)ncc1Cl
  3% | -6% | 3 | 5.1%
C#CCOCCOCCOCCNc1nc(N2CCN(C(=O)[C@H](CCCCN)n3cc([C@@H](N)CC(C)C)nn3)CC2)nc(N2CCN(C(=O)[C@H](CCCCN)n3cc([C@@H](N)CC(C)C)nn3)CC2)n1
  9% | -1% | -3 | 5.3%
COc1ccc(C(=O)Cn2c(C)nc([N+](=O)[O-])c2Br)cc1
  3% | 19% | -3 | 2.3%
O=C1c2ccccc2C(=O)N1Cc1ccccc1F
  ? | 1% | · | -1.8%
CCC(=O)Nc1ccc(S(=O)(=O)Nc2ccc(Cl)nn2)cc1
  0% | -6% | 11 | 0.1%
CCOC(=O)C1(Cc2cccc(Cl)c2)CCCN(C(=O)c2cccnc2)C1 (stereo not drawn)
  ? | 0% | 0 | -3.4%
CCC(Oc1ccccc1)C(=O)N1CC(C)CC(C)C1 (stereo not drawn)
  2% | -5% | 6 | -0.5%
CCC(C)NC(=O)C1c2ccccc2C(=O)N1Cc1cc(OC)ccc1OC (stereo not drawn)
  -10% | -3% | -2 | 2.2%
CCOc1cc(C)c(S(=O)(=O)Nc2ccc(F)cc2)cc1C
  1% | 22% | 2 | 6.4%
O=C(CC1CCCCC1)NCc1ccc(F)cc1
  30% | -43% | -6 | 1.1%
CCC(C)(C)N=C(NC#N)Nc1cccnc1
  · | 0% | -5&-10 | ·
CCOC(=O)c1c(CSc2ccc(C)cc2)oc2ccc(O)cc12
  1% | 7% | -14 | 0.0%
COc1ccc2oc(=O)c(C(=O)N3CCc4ccccc43)cc2c1
  -1% | 0% | -4 | 0.4%
Cc1ccccc1OCC(O)Cn1c(NCCN(C)C)nc2c1c(=O)n(C)c(=O)n2C (stereo not drawn)
  · | -2% | 5 | ·
O=C(NCCc1ccccc1)C1CCN(S(=O)(=O)c2cccc3nsnc23)CC1
  7% | -2% | -4 | 3.3%
CCOC(=O)C(Cc1ccccc1)C(=O)Nc1ccccc1C (stereo not drawn)
  -1% | -2% | -5 | 0.3%
O=C(c1ccc(-c2ccccc2)cc1)N1CCN(Cc2ccccn2)CC1
  7% | -13% | 4 | 4.4%
CCOC(=O)Cn1c(=O)oc2cc(S(=O)(=O)N3CCN(C(=O)c4ccco4)CC3)ccc21
  -7% | -2% | 3 | -5.9%
CCOC(=O)Cc1c(C)nc2cc(-c3ccc(Cl)cc3)[nH]n2c1=O
  1% | -15% | 2 | 2.1%
COc1cccc(NC(=O)N2CCCCCC2)c1
  -7% | -37% | · | -5.4%
Cc1cccc2sc(NC(=O)Cn3c(C)csc3=O)nc12
  5% | · | · | 0.7%
CSc1ccc(C2Nc3ccccc3-c3cc(C)nn32)cc1 (stereo not drawn)
  5% | -14% | -10 | -0.1%
C=CCn1c(NCc2cc(C)ccc2O)nc2ccccc21
  1% | -18% | -3 | -0.3%
O=C(O)CC(C(=O)Nc1ccc(Cl)cc1)N1CCCCCC1 (stereo not drawn)
  15% | 0% | · | -0.5%
O=C(CSCC(=O)NC1CCCC1)Nc1ccccc1
  -10% | 1% | -8 | -0.2%
Cc1nc2ncnn2c(C)c1CCC(=O)Oc1ccccc1
  8% | -4% | 1 | -1.2%
Cc1cc(C)cc(NC(=S)N2CCC(N(C)CC3CCCO3)CC2)c1 (stereo not drawn)
  -2% | -2% | -4[21.1 µM] | 0.6%
Cc1cccc(OCC(=O)NNC(=O)Cn2c(=O)cnc3ccccc32)c1
  -1% | · | · | -5.5%
Cc1ccc(CN(C)C(=O)CC2C(=O)NCCN2CC2CCCCC2)cc1 (stereo not drawn)
  -6% | -2% | 4 | -3.4%
CCCOc1cccc(C(=O)NC(=S)Nc2ccccc2)c1
  6% | -24% | -24 | 4.7%
CCOc1ccccc1C(=O)Nc1cccc2cccnc12
  3% | -8% | · | 0.4%
CCOC(=O)C1=C(N)OC2=C(C(=O)CC(C)(C)C2)C1c1ccc(CC)s1 (stereo not drawn)
  5% | -26% | -2 | -1.0%
CCCNC(=O)C1(CC2CC(c3ccccc3)=NO2)CCN(C(=O)OC(C)(C)C)CC1 (stereo not drawn)
  -9% | · | · | -3.2%
CC(=O)O[C@H]1CC(C)(C)C(=C=C/C(C)=C/C=C/C(C)=C/C=C/C=C(C)/C=C/C=C(\C)C(=O)C[C@@]23O[C@]2(C)C[C@@H](O)CC3(C)C)[C@](C)(O)C1
  0% | 4% | ? | -0.6%
CN(CC(=O)Nc1ccccc1Cl)C(=O)c1cccc(S(=O)(=O)N2CCN(Cc3ccccc3)CC2)c1
  0% | · | · | -0.7%
CCOC(=O)c1cc2n(c1N)-c1ccccc1C2=O
  ? | -33% | -3 | ?
Cc1ccc(S(=O)(=O)N[C@@H](CC(C)C)C(=O)N2CCC(C(=O)N[C@H](C(=O)O)C(C)C)CC2)cc1
  1% | 0% | · | 1.4%
O=C(Nc1ccnn1C1CCN(Cc2ccccc2)CC1)C1CCOC1 (stereo not drawn)
  6% | -1% | · | 1.7%
O=C(OCCOc1cccc(Cl)c1)c1ccc(F)c(S(=O)(=O)N2CCOCC2)c1
  7% | · | · | 0.5%
O=C(N/N=C/c1ccc(F)cc1)c1sccc1OCc1ccc(F)cc1
  -3% | 10% | 1 | -1.5%
CN(C(=O)c1ccc(F)c(S(=O)(=O)N2CCOCC2)c1)C1CCCCC1
  -10% | · | · | -0.3%
O=C(NCCCn1ccnc1)/C(=C/c1ccco1)NC(=O)c1ccccc1
  2% | · | · | 0.4%
CS(=O)(=O)N(CCCC(=O)N1CCCCCC1)c1cccc(Cl)c1
  -9% | 0% | · | -0.8%
CCOC(=O)C1CCCN(C(=O)c2cccc([N+](=O)[O-])c2C)C1 (stereo not drawn)
  -3% | 0% | -2 | -0.7%
COc1ccc(-n2c(-c3ccc(Cl)cc3)c[n+]3c2CCCCC3)cc1
  16% | ? | -5 | -0.2%
CCOc1ccc2nc(N3C(=O)C(O)=C(C(=O)c4ccco4)C3c3ccco3)sc2c1 (stereo not drawn)
  ? | · | · | ?
COc1cc(OC)cc(C(=O)N=c2sc3ccccc3n2C)c1
  -4% | -32% | 3 | -0.7%
CCN(CC)S(=O)(=O)c1ccc(Cl)c(NC(=O)CCCCl)c1
  ? | -7% | -6 | 7.0%
COc1ccccc1-c1nnc(SCC(=O)Nc2cccnc2Cl)n1C
  -4% | · | · | ?
COc1ccc(CN(C(=O)c2snc(C(N)=O)c2N)C(C(=O)NC2CCCC2)c2ccco2)cc1 (stereo not drawn)
  -2% | 8% | · | -7.6%
COCC(=O)OCc1cc2cccc(C)c2[nH]c1=O
  -26% | -4% | -20 | 0.3%

A few values from the entries so far.
O=C(N/N=C/c1ccc(F)cc1)c1sccc1OCc1ccc(F)cc1 in GLA inh pH 4.5 = 1
CN(CC(=O)Nc1ccccc1Cl)C(=O)c1cccc(S(=O)(=O)N2CCN(Cc3ccccc3)CC2)c1 in Rango release inh = 0%
COc1ccccc1-c1nnc(SCC(=O)Nc2cccnc2Cl)n1C in Rango release inh = -4%

Source: PubChem BioAssay
